TRPML1 blocker = human mucolipin-1 channel inhibition; activity change, negative = inhibition, % (concentration not given with the values); actives 0.02% (n = 390,000); TRPML1-inducible cells, Ca2+ dye fluorescence, FDSS; stronger effect = lower value; inhibition of EC80 agonist-evoked calcium signal; AID 624415; in the data active means activity change below about -50%; inconclusive means about -30% to -50%; inactive means above about -30%;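 also: stimulus is agonist 54-4 at its EC80 concentration; % is scaled to controls: 0 for no effect and ±100 for the full control effect; compound concentration not given in the record; the text of the record puts the active cut at -80%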
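Calcium fluorescence in TRPML1-DL cells induced overnight with Tet: a 110 s read after compound pin addition, then a 110 s antagonist read after challenge with 54-4 at 4 uM final (EC80).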
TRPML1 agonist = activates the human TRPML1 channel | actives 0.12% (n = 410,000) | TRPML1-expressing cells, Ca2+ dye fluorescence, FDSS; host cell line not named in the record; reference of the full effect not given here | activation, % (test concentration not listed); in the data active = activation above about 50%; inconclusive = about 30% to 50%; inactive = below about 30%; also: 0% is about no effect; the text of the record puts the active cut at 80%
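Tetracycline-induced TRPML1-DL cells are seeded and incubated overnight before loading with a no-wash Ca2+ dye and quencher. Agonist activity is taken from the 110 s fluorescence read following compound pin-transfer on an FDSS, before EC80 54-4 challenge.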
PINK1 expr mod = modulators of PINK1 expression. PINK1 immunofluorescence, high-content cytometry, 24 h. actives 0.2% (n = 410,000). Potency, µM (highest dose often 76.6 µM), inactives show at the highest dose activation (PINK1 increase), hits mostly activators; active = well fitted activation curve with a large enough effect; inconclusive = small, poorly fitted or top-dose-only effect; inactive = flat fitted curve, though single readings scatter; cell line not stated here;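 also: potency is read from the fitted curve at half-maximal effect; % of control where 0% means no effect; nearly all actives have a fitted effect of over 65% in size; a mitochondrial uncoupler was the plate control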
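PINK1 protein, normally rapidly degraded, was detected by immunofluorescence after 24 hour compound treatment of a stable cell line. Titration data (5 concentrations) came from laser-scanning cytometry, with CCCP-treated wells as controls.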
D2 ag = agonists of human D2 dopamine receptor (beta-arrestin); P14416; DiscoveRx PathHunter D2 beta-arrestin, luminescence, 90 min; 100% = 57 uM dopamine signal; activation, % (concentration not given with the values); actives 0.084% (n = 360,000); AID 624465; in the data active = activation above about 40%; inconclusive = about 15% to 40%; inactive = below about 15%; also: compound concentration not given in the record; the text of the record calls up to 30% inactive
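Agonist mode: compounds alone added to overnight-plated D2 PathHunter cells for 90 min at 37 C, with 57 uM final dopamine (EC100) defining full response. Beta-arrestin recruitment detected by chemiluminescent reagent, read after 1 h at ambient temperature.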
Six1-Eya2 blk = inhibitors of human Six1/Eya2 interaction | AlphaScreen GST-Six1/His-Eya2 binding, biochemical; stronger effect = lower value; control for the full effect not named in the record | activity change, % (no concentration beside the values) | AID 651725 | Q15475+O00167 | actives 0.56% (n = 360,000); in the data active = activity change below about -65%; inconclusive = about -30% to -65%; inactive = above about -30%; also: % is scaled to controls: 0 for no effect and ±100 for the full control effect; compound concentration not given in the record
Target sequence (O00167 whole entry, looked up): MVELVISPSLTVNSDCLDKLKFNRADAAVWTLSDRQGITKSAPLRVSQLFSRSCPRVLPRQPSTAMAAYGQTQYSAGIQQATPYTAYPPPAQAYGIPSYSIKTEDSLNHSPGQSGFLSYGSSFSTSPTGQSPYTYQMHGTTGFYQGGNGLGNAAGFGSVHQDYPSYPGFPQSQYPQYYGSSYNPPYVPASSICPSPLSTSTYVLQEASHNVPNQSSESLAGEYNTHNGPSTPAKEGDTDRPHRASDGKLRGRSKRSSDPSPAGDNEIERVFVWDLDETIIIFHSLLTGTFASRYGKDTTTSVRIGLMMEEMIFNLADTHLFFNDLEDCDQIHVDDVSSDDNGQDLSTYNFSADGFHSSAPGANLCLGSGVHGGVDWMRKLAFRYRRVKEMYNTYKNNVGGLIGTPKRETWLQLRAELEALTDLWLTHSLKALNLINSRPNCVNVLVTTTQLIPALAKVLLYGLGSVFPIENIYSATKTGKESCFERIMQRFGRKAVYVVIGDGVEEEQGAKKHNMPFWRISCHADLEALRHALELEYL
Target sequence (Q15475 whole entry, looked up): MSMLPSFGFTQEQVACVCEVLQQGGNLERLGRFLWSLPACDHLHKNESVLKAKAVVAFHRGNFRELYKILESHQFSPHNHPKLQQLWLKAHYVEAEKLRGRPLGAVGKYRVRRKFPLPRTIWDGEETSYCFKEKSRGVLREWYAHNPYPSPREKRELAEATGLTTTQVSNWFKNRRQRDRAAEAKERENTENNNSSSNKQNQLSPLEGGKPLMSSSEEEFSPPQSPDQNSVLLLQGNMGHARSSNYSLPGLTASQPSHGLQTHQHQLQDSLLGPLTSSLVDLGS
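GST-Six1 + His-Eya2 (5X stock: 250/500 nM); Tris pH 8.0, 300 mM NaCl, 0.05% BSA, 0.02% Tween 20; GSH donor/Ni acceptor beads; 1 h 37 °C dark; AlphaScreen readout.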
D2 potentiator = potentiates the human D2 dopamine receptor allosterically; P14416; DiscoveRx D2 beta-arrestin cells, luminescence, 90 min; 100% = 57 uM dopamine signal; potentiation, % (test concentration not listed); actives 0.23% (n = 360,000); AID 624464; active = potentiation of 50% or more; inconclusive = 30% to 50%; inactive = 30% or less;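 also: compound concentration not given in the record; tested on top of an EC20 dose of dopamine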
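PathHunter D2 cells, attached overnight at 37 deg C, received compound in DMSO plus dopamine at EC20 (50 nM final) for 90 min at 37 deg C. Beta-arrestin recruitment was read as luminescence after 1 h with detection reagent at ambient temperature.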
Starred values were filed as active, the others as inactive; ? = inconclusive; nt = not tested or not shown; & = joins results of further samples; [ ] = another dose, or the depositor's remark. Compounds were not picked by outcome; any-hit rate near 1%.

SMILES	TRPML1 blocker	TRPML1 agonist	PINK1 expr mod	D2 ag	Six1-Eya2 blk	D2 potentiator
O=C(COc1ccccc1)OCc1cc(=O)n2nc(-c3cccs3)sc2n1	6.5	-0.7	-1.0%	nt	nt	nt
COc1cccc(C2=CC(c3ccc(OC)c(OC)c3OC)n3nnnc3N2)c1 (stereo unspecified)	-5.4	1.6	1.8%	2.4	6.0	9.5
Cn1ccc2c(/C=C/c3ccc(F)cc3)cc3c(c21)C1CCC3O1 (stereo unspecified)	nt	-0.6	9.6%	-2.1	46.8	-5.6
c1nc(N2CCCC2)c2[nH]cnc2n1	26.0	1.3	-3.4%[38.3 µM]	-3.4	-2.8	-6.8
COc1ccc(CNC(C)(C)C)cc1Cl	14.1	2.6	0.7%[38.3 µM]	-1.8	-0.4	-9.2
CCS(=O)(=O)c1ccc2c(c1)N(S(C)(=O)=O)CC(C(=O)NCCOC)O2 (stereo unspecified)	-23.1	0.4	-1.1%	-2.8	4.1	3.4
CCOc1ccccc1CNC(=O)c1cc2oc3ccccc3c2n1C	38.4	1.4	29.8%	-0.8	-15.3	-8.6
COc1ccc(NC(=O)CCC(=O)c2cc(C)sc2C)cc1	54.8	3.2	-1.5%	-1.8	-2.8	-2.3
CCOCCc1nnc(NC(=O)c2cccs2)s1	6.2	1.7	-0.5%	-1.0	3.1	-6.8
COc1ccccc1NC(=O)c1sc2nc(C)c(C(=O)Nc3ccc(C)cc3C)c(-c3ccc(Br)cc3)c2c1N	-14.2	-0.4	0.7%	nt	nt	nt
Cc1ccc(-n2nc(C(=O)N3CCN(c4cccc(C(F)(F)F)c4)CC3)c(=O)n(C)c2=O)cc1	10.0	0.4	-0.2%	nt	nt	nt
N=c1c2c3c(sc2ncn1N)CCCC3	-17.3	0.6	-2.3%	-5.6	-6.2	-1.9
CNC(=O)c1c[nH]n2c(=O)c(Cc3ccccc3F)c(C)nc12	52.6	-0.4	1.8%	0.5	1.4	-1.6
Cc1cc(Nc2cccc(Cl)c2)c2ccccc2n1	nt	nt	13.9%	1.7	1.8	-56.1
CCN(Cc1ccccc1)C(=O)c1nn(-c2ccc(OC)cc2)c(=O)c2c1c1ccccc1n2C	2.7&55.3	-0.4&2.1	0.0%&0.9%	0.9	-3.0	11.5
Cc1ccc(N2C(=O)[C@@H]3[C@H](C2=O)C2c4ccccc4C=NN2[C@@H]3C(=O)c2ccc(Cl)cc2)cc1 (stereo partly specified)	-10.0	9.0	0.0%	-1.2	-11.0	-1.8
COCCN(C(=O)c1csnn1)C(C(=O)NC1CCCC1)c1ccc(C)cc1 (stereo unspecified)	11.0	0.3	-1.5%	-1.4	5.7	-6.6
CSC(=O)NC(=O)NC(=O)c1ccc([N+](=O)[O-])cc1	2.2	2.8	-1.6%	3.3	0.2	25.6
COc1ccc(OC)c(NC(=O)C23CCC(C)(C(=O)O2)C3(C)C)c1 (stereo unspecified)	-7.4	-0.1	-0.1%	-2.4	-4.7	-47.4
CCOc1ccc(C(c2c(O)cc(C)n(Cc3ccco3)c2=O)N2CCCCC2)cc1 (stereo unspecified)	3.3	-0.2	-0.1%	nt	nt	nt
Cc1cc(NC(=O)CSC2=NS(=O)(=O)c3cc(Cl)ccc3N2)no1	-6.3	-0.4	3.6%	-4.9	9.3	-39.3
COc1ccc(Oc2c(O)c3ccccc3n(C)c2=O)cc1	-3.8	2.6	0.5%	-6.6	-1.4	9.3
Cc1nn(C(C)C(=O)NCCCN2CCCCCC2)c(=O)c2c1sc1ccccc12 (stereo unspecified)	34.8	-0.8	-0.5%	-5.5	-5.0	-24.3
Cc1oc(-c2ccc(Cl)cc2)nc1CS(=O)CC(=O)NC1CCCCCC1 (stereo unspecified)	20.5	-0.9	1.1%	-1.3	8.1	-8.0
CCC(=O)N/N=C(\C)CC(=O)Nc1cccc([N+](=O)[O-])c1	-20.3	1.1	2.9%	5.4	0.3	-10.8
Other records.
SMILES	TRPML1 blocker	TRPML1 agonist	PINK1 expr mod	D2 ag	Six1-Eya2 blk	D2 potentiator
CC(=O)NNC(=O)CCn1nnc2ccccc21	42.1	-0.2	0.2%	0.4	3.0	3.5
CC(C)C(=O)Nc1ccc2c(c1)nc(CCN1CCN(C)CC1)n2C	43.3	0.7	4.1%[38.3 µM]	-2.3	3.0	-14.8
COc1ccccc1CNS(=O)(=O)N(C)C	-3.0	-0.4	-0.9%	-1.2	8.7	-8.3
CNCC(C)COc1ccccc1OCc1ccccc1 (stereo unspecified)	22.2	-0.3	0.5%	-4.6	4.0	-45.4
O=C(NCC1CCCO1)C(c1ccc(F)cc1)N(Cc1ccc2c(c1)OCO2)C(=O)c1ccc(CN2CCOCC2)o1 (stereo unspecified)	11.8	1.4	-2.1%	1.7	2.7	1.3
Cc1cc(N)n2nc(-c3ccccc3)cc2n1	-9.0	2.3	-0.2%	10.3	-11.3	-11.9
CC1CC(C)CN(C(=O)c2ccc(NS(=O)(=O)c3ccc4[nH]c(=O)[nH]c4c3)cc2)C1 (stereo unspecified)	5.5	-1.1	2.9%	-2.5	-1.3	0.7
CC(NC(=O)Nc1ccc2c(c1)OCO2)c1ccncc1 (stereo unspecified)	5.5	1.0	1.0%	9.3	-0.4	-6.1
CCOc1ccc(N(CC(=O)NCC(C)C)S(C)(=O)=O)cc1	-2.6	-1.2	-1.4%	-5.1	-1.0	-12.8
Cc1ccc(NC(=O)CSc2nnc(NC(=O)c3ccco3)s2)cc1	10.3	-0.4	-0.4%	2.9	0.1	-7.6
COc1cn(CC(=O)Nc2cc(C)ccc2C)c(CN2CCCCC2)cc1=O	16.7	2.8	2.2%	nt	nt	nt
CCOC(=O)CNC(=S)N(Cc1cccs1)C1CCCC1	35.1	0.7	3.1%	-2.5	1.8	-3.8
O=C(CSc1nnc2ccc(-c3ccccn3)nn12)N1CCCC1	nt	nt	1.5%	2.3	6.8	4.2
CC(C)NC(=O)CC1OC(=O)c2ccccc21 (stereo unspecified)	0.0	0.1	0.7%	0.5	2.0	-0.8
Cc1ccc(C(=O)NCC(=O)OCC(=O)NCC(F)(F)F)cc1	17.8	0.8	0.5%	-1.8	0.0	-4.1
Cc1ccc(C(NC(=O)C(C)C)c2cc([N+](=O)[O-])c3cccnc3c2O)cc1 (stereo unspecified)	-10.2	1.8	0.5%	-4.1	-88.4*	-21.6
O=C(CCC(=O)N1CCc2ccccc2C1)NCCc1ccc(Cl)cc1	-21.4	-0.4	-0.1%	-1.4	11.4	-5.6
CCN(CC)S(=O)(=O)c1ccc(NC(=O)c2cnccn2)cc1	nt	nt	1.9%	-1.2	3.6	0.7
CCOc1ccccc1/C=C(\C#N)C(=O)NC1CC1	-0.6	0.4	-0.6%	-2.0	4.5	-4.3
C#CCOCCOCCOCCNc1nc(N2CCN(C(=O)CCCCCCCCCCNC(=O)[C@H]([C@@H](C)CC)n3cc(CCCCN=C(N)N)nn3)CC2)nc(N2CCN(C(=O)CCCCCCCCCCNC(=O)[C@H](CCCCN)n3cc(C)nn3)CC2)n1	10.2	-0.8	7.9%	2.8	-7.0	-90.6
CC(=O)N1c2ccc(S(=O)(=O)NCCC(=O)Nc3ccc(Br)c(C)c3)cc2CC1C (stereo unspecified)	-22.1	0.3	-1.0%	nt	nt	nt
Cc1ccc(-c2nnc3ccccc3c2C(=O)Nc2cccc(C(F)(F)F)c2)cc1	-1.2	-0.2	-0.2%	nt	nt	nt
Cc1ccc(-n2c(=O)[nH]c3cc(C(=O)NCc4ccccc4)ccc3c2=O)cc1	-4.9	1.8	-0.3%	nt	nt	nt
CCOc1ccc(N(CC)S(=O)(=O)N2CCCC(C(=O)NCCc3ccc(OC)cc3)C2)cc1 (stereo unspecified)	17.8	3.3	-0.1%	nt	nt	nt
Clc1ccc(-c2cc(CSc3cccc(Cl)c3)on2)cc1	51.4	2.3	5.6%	3.5	125.0	16.8
Additional structures:
SMILES	TRPML1 blocker	TRPML1 agonist	PINK1 expr mod	D2 ag	Six1-Eya2 blk	D2 potentiator
CCN(C(C)=O)N(CC)c1nc(Cl)nc(NC(C)C)n1	5.8	3.1	-1.0%	3.0	-0.6	-5.2
Cc1ccc(S(=O)(=O)N2CCN(CC3CC4C=CC3C4)CC2)cc1 (stereo unspecified)	5.0	0.9	0.3%	-5.6	19.9	-0.7
O=C(NCc1ccccc1)C(c1ccco1)N(C(=O)c1csnn1)c1ccccc1F (stereo unspecified)	4.2	0.2	1.2%	1.9	-5.6	0.6
CC(C)=CCN1CCN(Cc2cc(CC(C)C)n[nH]2)CC1CCO (stereo unspecified)	-25.7	0.1	-2.0%	3.9	3.9	-4.9
COc1ccccc1N1CCN(S(=O)(=O)c2ccc3c4c(cccc24)C(=O)N3)CC1	-26.4	0.0	nt	-0.2	-16.7	4.1
COc1ccc(CNC(=O)Cn2ccc(N)nc2=O)cc1	-1.4	-0.2	1.2%	-3.2	0.6	-10.8
Cc1ccc(C(=O)N2CCCCCC2)cc1Br	-1.8	0.9	5.7%	-3.5	-5.0	-7.0
O=S(=O)(NC1CCCCC1)c1ccc(Br)s1	4.9	2.9	12.4%	-1.8	9.6	0.3
NC(=O)c1cc(N=Nc2c(N)[nH]n(-c3c(Cl)cc(Cl)cc3Cl)c2=O)ccc1Cl	3.0	-0.8	3.4%	-0.6	-11.0	-4.8
Cn1c(=O)c2c(nc(N3CCOCC3)n2CCc2ccccc2)n(C)c1=O	-4.7	-0.3	-2.4%	3.1	7.5	-17.1
CC(C)(C)c1cc(C(C)(C)C)cc(S(=O)(=O)CCc2ccccn2)c1	-9.6	0.7	-3.3%[38.3 µM]	-2.3	5.1	7.3
O=C(CSc1nc2ccccc2o1)NCc1ccco1	-2.4	0.2	-2.1%	0.7	-1.0	-4.0
COc1ccc(NC(=O)CCC(=O)N2CCC(c3ccccc3)=N2)cc1S(=O)(=O)N1CCCCC1	-4.6	2.0	10.7%	-1.0	1.7	-3.3
CCC(=O)NCCN1CCN(C(=O)CC)CC1	-4.9	-0.3	0.3%	-3.8	2.3	-11.3
CCCOC(=O)c1ccc(Oc2cn[nH]c2-c2ccc(O)cc2O)cc1	13.4	0.2	2.9%	1.1	-0.8	-8.8
CN1CCN(C2(CNC(=O)c3ccc([N+](=O)[O-])cc3)CCCCC2)CC1	0.8	1.7	-1.1%	nt	nt	nt
O=C(CNC(=O)c1ccco1)NNC(=O)c1ccc(Br)cc1	-12.9	1.7	2.4%	3.9	-1.2	-2.4
CCOc1ccc2cc(C(=O)c3ccccc3)c(=O)oc2c1	6.9	-0.3	4.5%	-1.2	1.6	-14.2
CS(=O)(=O)c1ccc(C(=O)OCC(=O)NC(=O)Cc2ccccc2)cc1	-9.8	2.0	2.3%	-5.0	1.2	3.8
Cc1ccc(CC(=O)Nc2cccc(C)n2)cc1	-0.3	-0.1	?	-1.1	0.2	-4.4
O=C(Cn1nnc(-c2ccccc2)n1)NC(=O)NC1CCCC1	-1.5	1.5	?	-5.2	-1.8	3.0

Record cards, from the list above. Screens in order: TRPML1 blocker | TRPML1 agonist | PINK1 expr mod | D2 ag | Six1-Eya2 blk | D2 potentiator
CS(=O)(=O)c1ccc(C(=O)OCC(=O)NC(=O)Cc2ccccc2)cc1 across the screens: -9.8 | 2.0 | 2.3% | -5.0 | 1.2 | 3.8
CN1CCN(C2(CNC(=O)c3ccc([N+](=O)[O-])cc3)CCCCC2)CC1 across the screens: 0.8 | 1.7 | -1.1% | nt | nt | nt
